# Screening data: PubChem, Southern Research Specialized Biocontainment Screening Center
# Mtb betalactam: beta-lactam sensitization of Mtb H37Rv | M. tuberculosis H37Rv growth with meropenem, percent inhibition; hits of this screen are not shown here | inhibition, % at 25 µM | actives 0.27% (n = 330,000) | AID 434955;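 active = about 74% or more and at least 40 points above the plate without the antibiotic, then above 30% in a dose series; inconclusive = first-round hits that could not be retested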;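 also: growth measured after seven days incubation then overnight dye step; 0% = bacteria only wells and 100% = bacteria with antibiotic; twin plates without the antibiotic show which effects depend on it; some results filed as inactive read as strong as hits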
# * hit, by the source's call; ? = inconclusive. An excerpt, so the mix of outcomes need not match the whole.
SMILES,Mtb betalactam
C=CCC[C@H](Cc1ccc(F)cc1)C(=O)OC[C@H](Cc1c[nH]c2ccccc12)NC(=O)[C@@H](CC=C)CC(=O)N(CCO)Cc1ccccc1,-2.1
CCOc1ccc(NC(=O)COc2ccc3c(c2)CCC3)cc1OC,-9.3
Cc1ccnc(NC(=O)c2ccc3c(c2)NC(=O)C(C)S3)c1 (stereo not given),1.5
C=C[C@@H]1c2ccccc2N(S(=O)(=O)c2ccc(C)cc2)[C@H](c2ccccc2C(F)(F)F)C1(C#N)C#N,0.1
CN(C(=O)Cn1nnc(-c2ccc(F)cc2)n1)C1CCS(=O)(=O)C1 (stereo not given),2.0
COC(=O)c1sc(S(=O)(=O)N2CCCCC2C)c(C(=O)OC)c1C (stereo not given),-5.8
CCCCCCC(C)(C)c1ccc([C@@H]2C[C@H](O)CC[C@H]2CCCO)c(O)c1,-3.0
COc1ccccc1NC(=O)c1ccc(NC(=O)CSc2nc(N)cc(=O)[nH]2)cc1,6.3
CC[C@@H]1C=C(C(=O)O)[C@H](c2ccc(Br)cc2)N1S(=O)(=O)c1ccc(C)cc1,2.9
COc1ccc(OC)c(C=NNC(=O)c2ccccc2NS(=O)(=O)c2cccs2)c1,-0.2
COc1ccc(C(=O)N2C[C@H]3C[C@@H](C2)c2cccc(=O)n2C3)cc1OC,-1.3
COc1ccc(OC)c(C(=O)COC(=O)COc2ccccc2)c1,-0.7
CC(=O)c1ccc(S(=O)(=O)NCCC(=O)NC2CCN(Cc3ccccc3)CC2)cc1,-7.4
COc1cc(C=NNC(=O)c2ccccc2NS(=O)(=O)c2cccs2)cc(OC)c1O,5.2
Cc1cc(=O)[nH]c2sc(C(=O)N3c4ccccc4CC3C)c(N)c12 (stereo not given),1.1
CCOc1ccccc1N1CCN(C(=O)c2cc(S(=O)(=O)N3CCCCC3)ccc2C)CC1,-9.6
Cc1n[nH]c(C)c1CCN(C)C(=O)C1CCC(=O)N(CC2CCCCC2)C1 (stereo not given),?
O=C(Nc1cc(S(=O)(=O)Nc2ccccc2Cl)ccc1O)c1ccc(F)cc1F,-2.8
Cc1ccc(S(=O)(=O)N2CCN(C(=O)COC(=O)CCCOc3ccccc3)CC2)c(C)c1,4.6
COC(=O)C1=C(c2ccc(Cl)c(C(F)(F)F)c2)C[C@@H]2CC[C@H]1N2C(=O)NC1CC1,-1.5
COc1ccc(C(=O)COC(=O)c2cnc(C)cn2)cc1OC,5.8
CC1CCCCC1NC(=O)c1cc(S(=O)(=O)N2CCCCC2)ccc1N1CCOCC1 (stereo not given),-10.4
CCCc1nnc(NC(=O)c2ccc(S(=O)(=O)N(C)c3ccccc3OC)cc2)s1,-0.1
CC1CN(S(=O)(=O)c2cc(C(=O)NC(C)c3cccnc3)ccc2Cl)CC(C)O1 (stereo not given),1.0
COc1cc(CC(=O)OCC(=O)NC2CCCCCC2)cc(OC)c1OC,0.4
SMILES,Mtb betalactam
CC(NC(=O)c1ccco1)C(=O)N1CC=C(c2ccccc2)CC1 (stereo not given),-3.5
CCN(CC(=O)Nc1c(F)cccc1F)C(=O)c1n[nH]c2ccccc12,-3.9
CCOc1ccc(OCC)c(NC(=O)C2CCCN(C(=O)c3ccc(Cl)cc3)C2)c1 (stereo not given),2.0
COc1ccccc1CNC(=O)COC(=O)Cc1ccc(Br)cc1,-4.2
O=C(CN1C(=O)NC2(CCc3ccccc32)C1=O)NCc1ccc(Cl)cc1 (stereo not given),-7.3
C#CCOCCOCCOCCNc1nc(N2CCN(C(=O)CCCCCCCCCCNC(=O)[C@H](CCCCN)n3cc(C)nn3)CC2)nc(N2CCN(C(=O)CCCCCCCCCCNC(=O)[C@H](CCCN=C(N)N)n3cc(C[C@@H](C)CC)nn3)CC2)n1,98.8
N#Cc1ccc(NC(=O)CSc2cn[nH]n2)cc1,4.8
Cc1ccc(CNC(=O)CSc2nc3ccccc3c(=O)n2CC2CCCO2)cc1 (stereo not given),6.3
Cc1cn(-c2cccnc2)c(C)c1CNC[C@H]1O[C@@H](n2cnc3c(N)ncnc32)[C@H](O)[C@@H]1O,-5.3
CCOC(=O)[C@@H]1[C@H]2COc3cc(OC)ccc3[C@H]2N2C(=O)N(c3ccccc3)C(=O)[C@]12C,-2.8
COc1cc(C#N)ccc1OCC(=O)NCCC1=CCCCC1,1.6
O=[N+]([O-])c1ccc(CNCc2cc(Cl)ccc2O)cc1,3.6
CC1CCC(C#N)(N(C)C(=O)CSc2nnc(C3CC3)n2C2CC2)CC1 (stereo not given),-9.1
CCOc1ccccc1C(=O)NCC(=O)N(C)Cc1cccnc1,-16.7
O=S(=O)(NCCCN1CCOCC1)c1ccc(F)c(Cl)c1,-10.0
O=S(=O)(/N=C(/Nc1cccnc1Cl)c1ccccc1)c1ccccc1,-5.8
C/C(CC(=O)Nc1ccc(N(C)C)cc1)=N\NC(=O)c1ccc(Cl)cc1Cl,-1.0
CCOc1ccc(NC(=O)CSc2nnc(C3CC3)n2C)cc1S(=O)(=O)N1CCCCC1,-0.4
CC(C)(C)OC(=O)NCCCCCNC(=O)c1nc[nH]c1C(=O)N1CCN(C(=O)OC(C)(C)C)CC1,-1.0
CSc1ccc(/C=C/C(=O)OCC(=O)NC2CCS(=O)(=O)C2)cc1 (stereo not given),-3.3
COc1cccc(CNCc2ccccc2Br)c1OC,0.4
CCc1ccc(S(=O)(=O)N2CCN(C(=O)c3cccnc3)CC2)cc1,-1.3
CCCN(CC(=O)Nc1ccc(NC(C)=O)cc1)CC(=O)Nc1ccc(F)c(F)c1F,-1.6
Cc1ccc2c(=O)n3c(nc2c1)C(CC(C)C)NC(=O)c1ccc(Cl)cc1-3 (stereo not given),1.6
COc1ccc(-c2nc3ccc(Cl)cn3c2NC2CCCCC2)cc1SC1CCCCC1,78.1
SMILES,Mtb betalactam
CCCCCc1nnc(NC(=O)c2ccc3nc[nH]c3c2)s1,8.1
C[C@H](CO)N1C[C@H](C)[C@@H](CN(C)C(=O)Nc2ccccc2)Oc2c(NS(=O)(=O)c3ccc(F)cc3)cccc2C1=O,-7.3
COc1ccc(NC(=O)COC(=O)Cn2cnc3ccccc32)cc1,0.2
CNC(=O)c1ccc(NC(=O)C2CCN(S(=O)(=O)c3cccc(C(F)(F)F)c3)CC2)cc1,-6.7
COC(=O)c1c(C)[nH]c(C(=O)C(C)OC(=O)C2CC2)c1C (stereo not given),-5.0
CCCCN(C(=O)c1ccc(N2CCCC2=O)cc1)c1c(N)n(CC(C)C)c(=O)[nH]c1=O,3.2
Cc1ccc(OCCC(=O)OCC(=O)c2ccc3c(c2)NC(=O)CO3)cc1,-1.5
COc1ccccc1C(=O)NCC(=O)OCC(=O)Nc1nnc(-c2ccccc2)o1,-1.3
O=C(COC(=O)c1ccc(O)cc1)Nc1ccc(S(=O)(=O)N2CCOCC2)cc1,6.3
Cc1cc(C)c(NC(=O)CNC(=O)CN(C)Cc2ccc(Br)s2)c(C)c1,-4.9
N#Cc1ccc(C(=O)Nc2cc(-c3ccc(F)cc3)nn2-c2ccccc2)cc1,0.4
Fc1ccccc1-c1nc(-c2ccc(-c3nn[nH]n3)cc2)no1,2.9
CN(Cc1cccs1)C(=O)COc1cccc2c1OC(C)(C)C2,-2.1
C[C@@H]1CN([C@@H](C)CO)C(=O)c2cccc(NS(=O)(=O)c3cccs3)c2O[C@H]1CN(C)Cc1ccc(C(F)(F)F)cc1,-1.0
O=C(c1ccc(F)cc1F)N1CCN(S(=O)(=O)c2ccc3c(c2)OCCO3)CC1,-2.7
O=C(NNc1c(F)c(F)cc(F)c1F)c1ccc(Cl)nc1,-5.4
CC(C)(C)c1cc(C=C(C#N)C#N)cc(C(C)(C)C)c1O,10.5
CC1(C)Cc2cccc(OCC(=O)OCc3nnc(-c4ccccc4)o3)c2O1,-3.3
O=C(O)C1=CC[C@@H](c2ccc(Cl)cc2)N(S(=O)(=O)c2ccc(Cl)cc2)[C@H]1c1ccc(F)cc1,-1.0
COc1cccc(NC(=O)c2ccc3c(c2)OCO3)c1,-0.6
CN(C)c1ccc(S(=O)(=O)N2CCC(Cc3ccccc3)CC2)cn1,-3.0
Cn1nc(C(=O)Nc2cccc(C(=O)NC3CC3)c2)c2ccccc2c1=O,-5.1
O=C(O)CNS(=O)(=O)c1ccc2c(c1)Cc1cc(S(=O)(=O)NCC(=O)O)ccc1-2,-9.9
COc1ccccc1/C=C/C(=O)OCC(=O)c1cc(C)n(C)c1C,-11.7
C[C@@]12C(=O)OC(=O)[C@]1(C)C1CCC2O1,2.2

# Fetched one by one from the entries so far, 3 records:
SMILES,Mtb betalactam
COc1ccccc1C(=O)NCC(=O)OCC(=O)Nc1nnc(-c2ccccc2)o1,-1.3
C[C@@H]1CN([C@@H](C)CO)C(=O)c2cccc(NS(=O)(=O)c3cccs3)c2O[C@H]1CN(C)Cc1ccc(C(F)(F)F)cc1,-1.0
C[C@@]12C(=O)OC(=O)[C@]1(C)C1CCC2O1,2.2

# In the list so far, these contain two or more sulfur atoms:
SMILES,Mtb betalactam
COC(=O)c1sc(S(=O)(=O)N2CCCCC2C)c(C(=O)OC)c1C (stereo not given),-5.8
COc1ccc(OC)c(C=NNC(=O)c2ccccc2NS(=O)(=O)c2cccs2)c1,-0.2
COc1cc(C=NNC(=O)c2ccccc2NS(=O)(=O)c2cccs2)cc(OC)c1O,5.2
CCCc1nnc(NC(=O)c2ccc(S(=O)(=O)N(C)c3ccccc3OC)cc2)s1,-0.1
CCOc1ccc(NC(=O)CSc2nnc(C3CC3)n2C)cc1S(=O)(=O)N1CCCCC1,-0.4
CSc1ccc(/C=C/C(=O)OCC(=O)NC2CCS(=O)(=O)C2)cc1 (stereo not given),-3.3
C[C@@H]1CN([C@@H](C)CO)C(=O)c2cccc(NS(=O)(=O)c3cccs3)c2O[C@H]1CN(C)Cc1ccc(C(F)(F)F)cc1,-1.0
O=C(O)CNS(=O)(=O)c1ccc2c(c1)Cc1cc(S(=O)(=O)NCC(=O)O)ccc1-2,-9.9

# Additional entries follow.
SMILES,Mtb betalactam
COc1cc(C(C)=O)ccc1OCC(=O)Nc1cc(C)on1,-1.6
CCOc1ccc(S(=O)(=O)NCC(=O)NC2CCCCC2)cc1,-6.8
CCOc1ncccc1C(=O)Nc1cccc(S(=O)(=O)N2CCCCC2)c1,-12.4
CC1CC(C)CN(C(=O)c2ccc(S(=O)(=O)N3CC(C)CC(C)C3)cc2)C1 (stereo not given),-4.1
CC(=O)Nc1ccc(C(=O)N/C(=C/c2ccccc2)C(=O)NCc2ccco2)cc1,-2.8
COc1ccc([C@@H]2CC(=O)c3c(O)cc(O[C@@H]4OC(CO[C@@H]5OC(C)[C@H](O)[C@@H](O)[C@H]5O)[C@@H](O)[C@H](O)[C@H]4O)cc3O2)cc1O (stereo not given in full),-6.4
O=C(CSc1nnnn1C1CC1)N1CCN(c2ccc(O)cc2)CC1,-10.5
CCOC(=O)[C@H]1[C@H]2COc3cc(OC)ccc3[C@@H]2N2C(=O)CN(Cc3ccc(C)cc3)C(=O)[C@@]12C,-5.8
O=C(COC(=O)/C=C/c1ccccc1)NCCNC(=O)COC(=O)/C=C/c1ccccc1,-0.5
CN(C(=O)CSc1n[nH]c(=O)[nH]c1=O)c1ccccc1,1.6
CCOC(=O)Cc1csc(NC(=O)c2ccc(C)c(S(=O)(=O)N3CCOCC3)c2)n1,-0.3
O=C(Nc1ccccc1)/C(=C\c1ccco1)NC(=O)c1ccco1,-6.3
COc1ccccc1N(C)S(=O)(=O)c1ccc(C(=O)N(C)Cc2ccc(Cl)s2)cc1,-2.6
O=C(COc1ccc(Br)cc1CO)N1CCCc2ccccc21,-25.2
O=C(CCNC(=O)c1ccco1)NC(Cc1c[nH]c2ccccc12)C(=O)O (stereo not given),4.4
O=C1CN(C(=O)CSc2ccc(-c3ccc(F)cc3)nn2)c2ccccc2N1,-6.9
CC(=O)N/C(=C\c1ccccc1)C(=O)OCC(=O)c1ccccc1,-10.2
N#Cc1ccc(OCC(=O)NC(=O)NC2CCS(=O)(=O)C2)cc1 (stereo not given),-4.9
COC(=O)C1=C(c2cc3ccccc3o2)C[C@@H]2CC[C@H]1N2C,0.1
CN(C1CCCCC1)S(=O)(=O)c1cn(C)c(=O)n(C)c1=O,0.4
COCCn1c(SCC(=O)c2c(N)n(C3CC3)c(=O)[nH]c2=O)nnc1-c1ccc(Cl)cc1,-9.9
CCCCOc1ccc(C(=O)OCC(=O)c2c(N)n(C)c(=O)n(C)c2=O)cc1,-9.1
Cc1ccc(C(=O)CCC(=O)NCc2ccc(Cl)cc2)cc1,-6.8
CC(C)(C)NCC(O)COc1ccccc1C1CCCC1 (stereo not given),8.7
COc1ccccc1C(=O)NC(CCSC)C(=O)NCc1ccncc1 (stereo not given),-2.6
SMILES,Mtb betalactam
CC[C@]12c3[nH]c4ccccc4c3CCN1C(=O)C(CC(=O)NCCCOC)C[C@@H]2C(=O)N1CCN(C(=O)c2ccco2)CC1 (stereo not given in full),2.7
CCc1ccc(Nc2n[n+](-c3ccccc3)c(-c3cccc(C)c3)s2)cc1,22.6
C[C@H](CO)N1C[C@H](C)[C@@H](CN(C)S(=O)(=O)c2ccc(F)cc2)Oc2ccc(NC(=O)Nc3ccccc3)cc2C1=O,3.4
CCCCn1c(N)c(N(Cc2ccccc2OC)C(=O)CN2C(=O)NC3(CCCC3)C2=O)c(=O)[nH]c1=O,-11.6
CC(C)(C)[C@H]1COC(=O)[C@H](NC(=O)OCC2c3ccccc3-c3ccccc32)C/C=C\C[C@@H](CC(=O)N[C@@H](CO)Cc2ccccc2)C(=O)N1,89.7
COc1ccc(NC(=O)COC(=O)C23CC4CC(CC(NC(C)=O)(C4)C2)C3)cc1S(=O)(=O)N1CCOCC1,0.9
COc1ccccc1NS(=O)(=O)c1ccc(C(=O)N2CCCCCC2)cc1,-5.0
CC1CCN(C(=O)CN(c2ccc3c(c2)OCCO3)S(=O)(=O)c2ccccc2)CC1,-1.2
Cc1cccc(-c2cc(C(=O)Nc3cccnc3)c3ccccc3n2)c1,87.1
Cn1c(CC(=O)NNC(=O)c2ccc(F)cc2Cl)nc2ccccc21,56.5
Cc1ccc(S(=O)(=O)/N=C2/NC(=O)/C(=C\c3ccccc3)S2)cc1,-1.2
CCN(CC(=O)NCc1ccc(Cl)cc1)C(=O)c1cc(S(=O)(=O)N2CCOCC2)ccc1C,-0.7
Cc1ccc(C(=O)Nc2ccc(S(=O)(=O)N3CCOCC3)cc2)cc1Br,-0.4
